Screens (PubChem BioAssay)
KCNQ2 enhance – potentiators of rat KCNQ2 potassium channel. AID 2239. hit rate 0.54% among 310,000. CHO-K1 KCNQ2, FluxOR thallium flux fluorescence; stronger effect = higher value. O88943. B-score at 10 µM;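 active = fluorescence ratio B-score at least 3 SD of library B-scores, with initial fluorescence B-score within 3 SD, cut at about 5.3 in these data; same plate scores as AID 2156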;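 note: B-score of peak minus minimum over baseline fluorescence ratio after K+ and Tl+ stimulus; positive B-score means potentiation of KCNQ2 with more thallium influx and brighter signal; only the inactives scoring about 0 or higher are listed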
Target sequence (O88943 whole entry, looked up): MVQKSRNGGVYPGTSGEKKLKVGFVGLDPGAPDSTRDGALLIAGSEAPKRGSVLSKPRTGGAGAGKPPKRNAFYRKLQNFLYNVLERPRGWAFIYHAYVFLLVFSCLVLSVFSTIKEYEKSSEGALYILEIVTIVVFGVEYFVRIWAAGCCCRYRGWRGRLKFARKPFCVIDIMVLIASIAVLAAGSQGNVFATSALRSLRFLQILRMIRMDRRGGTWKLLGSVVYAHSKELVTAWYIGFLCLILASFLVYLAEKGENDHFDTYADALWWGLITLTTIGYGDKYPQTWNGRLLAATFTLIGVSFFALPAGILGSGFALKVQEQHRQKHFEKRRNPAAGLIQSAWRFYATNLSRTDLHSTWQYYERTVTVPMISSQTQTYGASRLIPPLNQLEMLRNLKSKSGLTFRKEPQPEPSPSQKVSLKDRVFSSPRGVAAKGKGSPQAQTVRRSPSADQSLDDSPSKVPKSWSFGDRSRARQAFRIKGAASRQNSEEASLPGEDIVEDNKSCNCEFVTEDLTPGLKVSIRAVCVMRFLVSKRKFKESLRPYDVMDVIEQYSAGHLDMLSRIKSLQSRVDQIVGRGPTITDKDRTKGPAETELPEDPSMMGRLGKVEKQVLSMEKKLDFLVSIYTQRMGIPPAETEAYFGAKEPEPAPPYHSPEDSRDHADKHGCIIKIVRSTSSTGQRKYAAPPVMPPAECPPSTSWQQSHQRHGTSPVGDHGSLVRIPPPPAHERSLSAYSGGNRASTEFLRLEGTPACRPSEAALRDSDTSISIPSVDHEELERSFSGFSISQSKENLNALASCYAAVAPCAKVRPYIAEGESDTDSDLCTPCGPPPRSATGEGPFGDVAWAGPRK
KCNQ2 enhance baseline – second read-out of KCNQ2 enhance, no call of its own (marks repeat the call); B-score; compound at 10 µM; measured here: initial fluorescence intensity artifact check;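 brightness before thallium and not channel activity; 0 = typical well and far values either way flag optical interference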
Numbers without * were called inactive.

SMILES	KCNQ2 enhance	KCNQ2 enhance baseline
CCOc1ccc(NC(=O)CN(C)C(=O)CC2OC(=O)c3ccccc32)cc1OCC (stereo not given)	0.31	1.7
O=CN1CCN(C(=O)COc2ccc(Cl)cc2Br)CC1	0.16	-0.25
COCCN(C(=O)CSc1nnc(-c2ccccc2F)n1N)c1c(N)n(Cc2ccccc2)c(=O)[nH]c1=O	1.1	-1.2
COCC1CCN(C(=O)c2cc(COc3ccccc3SC)on2)C1 (stereo not given)	3	-0.25
CCCCn1c(N)c(N(CCOC)C(=O)COC(=O)COc2c(C)cc(C)cc2C)c(=O)[nH]c1=O	0.17	0.49
COC(=O)c1cc(S(=O)(=O)NCC(C)c2ccccc2)cn1C (stereo not given)	0.43	-1.4
CCOC(=O)CSc1nnc2c(n1)C1(C)CCC2C1(C)C (stereo not given)	0.1	-0.49
Cc1ccccc1-c1nc(CN2CCC(C(=O)N3CCC(C(N)=O)CC3)CC2)c(C)o1	0.75	0.45
CN(C)c1ccccc1C(=O)c1ccccc1N(C)C	1.7	-0.22
CCN(CC)c1ccc(/C=N/NC(=S)NCc2ccccc2)c(O)c1	0.51	0.74
Cc1cc2ccccc2n2c(SCC(=O)Nc3ccc(S(=O)(=O)N4CCCCC4)cc3)nnc12	0.39	0.97
COC(=O)Cc1ccc(OCC(=O)Nc2ccc(OC(F)(F)F)cc2)cc1	3	-1.1
Cc1ccc(Cl)c(NC(=O)CCl)c1Cl	0.71	-1.9
CC(=O)c1cccc(NC(=O)c2ccncc2)c1	0.6	-0.11
Brc1ccc(C2=CC(c3ccco3)n3nnnc3N2)cc1 (stereo not given)	0.02	-0.97
CC(C)CN(C(=O)COC(=O)CCC(=O)c1ccc(F)cc1)c1c(N)n(Cc2ccccc2)c(=O)[nH]c1=O	0.12	1.6
COc1cc(C(=O)Nc2ccc3c(c2)C(=O)c2ccccc2C3=O)cc(OC)c1OC	0.71	0.04
COc1ccccc1C(=O)Nc1ccnn1C1CCN(Cc2cnn(C)c2C)CC1	0.98	1.6
Cn1cnnc1SCC(=O)Nc1cc(S(=O)(=O)N2CCCCCC2)ccc1Cl	0.75	0.44
COCCN(C(=O)COC(=O)Cc1cccc(OC)c1)c1c(N)n(Cc2ccccc2)c(=O)[nH]c1=O	0.99	0.22
O=[N+]([O-])c1cccc(-c2n[nH]c(=S)n2Cc2ccccc2)c1	0.15	-0.04
CCOc1ccc(C(=O)OCC(=O)NC(C)C)cc1	0.35	1
COc1ccc(NC(=O)NCCCN2CCN(c3ccccc3F)CC2)cc1	0.1	0.86
CC(=O)Oc1ccc(C(=O)O)cc1OC(C)=O	0.36	0.46
COc1ccccc1NC(=O)c1sc2nc(N3CCOCC3)c3c(c2c1N)CCCC3	0.1	0.01
Next section.
SMILES	KCNQ2 enhance	KCNQ2 enhance baseline
COc1cc(CNCc2ccccc2)cc(Cl)c1OC	0.24	-1.7
CN(CC(=O)NCc1ccccn1)S(=O)(=O)c1ccc2ccccc2c1	0.36	1.8
Cc1noc(C)c1C(=O)OCC(=O)N(C)C1CCS(=O)(=O)C1 (stereo not given)	0.82	-1.5
CCCn1nnc(NC(=S)NC(=O)/C=C/c2ccco2)n1	2.4	-1.6
Cc1ccc(C)c(Cn2nnc3c(=O)[nH]c(C4CCN(S(=O)(=O)c5ccc(S(=O)(=O)N(C)C)cc5)CC4)nc32)c1	1.8	-1.3
Cc1ccc(-c2cc(C(=O)Nc3cc(C)on3)no2)cc1	0.78	0.34
COCCCNC(=O)c1cn(-c2cccc(OC)c2)c(=O)c2ccccc12	0.73	-0.23
COc1ccc(/C=C/C(=O)N2CCN(c3ccccc3)CC2)cc1S(=O)(=O)N1CCOCC1	1	-0.79
Cc1ccc(S(=O)(=O)N2CC(=O)Nc3ccccc32)cc1	1.6	0.36
COc1ccccc1NC(=S)N(Cc1ccccc1)Cc1cccnc1	0.05	2.3
Cc1onc(-c2c(Cl)cccc2Cl)c1C(=O)N1CCSCC1	0.09	0.31
CC(=O)NN1C(=O)c2ccc(Oc3ccc4c(c3)C(=O)N(NC(C)=O)C4=O)cc2C1=O	0.68	-1.1
COc1cc(Cl)c(C)cc1NC(=O)Cc1cccs1	2.1	0.58
COc1ccccc1CNC(=O)Cn1cc(Br)ccc1=O	0.28	0.49
CN(C)CCOC1c2ccccc2C=Cc2ccccc21	0.32	-0.04
CC1CN(C(=O)N[C@@H](Cc2ccccc2)C(=O)O)CC(C)O1 (stereo not given in full)	0.21	0.2
COc1ccc2nc(NC(=O)c3ccc(F)cc3)sc2c1	1.3	-0.17
NNc1ccc(S(=O)(=O)N2CCCCC2)cn1	0.2	0.72
COCCN(C(=S)Nc1ccccc1OC)C(C)c1cccs1 (stereo not given)	0.4	-0.25
Cc1ccc(NC(=O)CCSc2nnc(C)s2)cc1	1.1	1.4
CCOC(=O)c1c(C)[nH]c(C(=O)CN2C(=O)NC(C)(CC(C)C)C2=O)c1C (stereo not given)	2.4	1
COc1ccc(CCNc2ccc(C(CC(N)=O)NC(=O)c3ccccc3)cc2[N+](=O)[O-])cc1 (stereo not given)	0.48	2.6
Cc1cccc(C)c1NC(=O)CCc1nnc2ccc(N3CCCC3)nn12	1.6	-0.23
OC(COc1ccc(OCc2ccccc2)cc1)CN1CCCCC1 (stereo not given)	0.39	-0.23
Cc1noc(NS(=O)(=O)c2ccc(NC(=O)CSc3nnc(-c4ccccc4)n3C3CCCCC3)cc2)c1C	0.24	-0.12

Filtered by structure: the entries above containing bromine (three)
SMILES	KCNQ2 enhance	KCNQ2 enhance baseline
O=CN1CCN(C(=O)COc2ccc(Cl)cc2Br)CC1	0.16	-0.25
Brc1ccc(C2=CC(c3ccco3)n3nnnc3N2)cc1 (stereo not given)	0.02	-0.97
COc1ccccc1CNC(=O)Cn1cc(Br)ccc1=O	0.28	0.49

Later entries:
SMILES	KCNQ2 enhance	KCNQ2 enhance baseline
CCn1c(SCC(=O)O)nnc1-c1ccc(S(=O)(=O)N2CCCC2)cc1	0.98	-0.58
O=C(COC(=O)[C@@H]1CCCN1S(=O)(=O)c1ccc(Cl)cc1)NC1CCS(=O)(=O)C1 (stereo not given in full)	2.3	-0.46
COC(=O)c1c(C(=O)OC)c(-c2cccc(F)c2)n2c1CS(=O)C2 (stereo not given)	0.66	-0.78
CCOC(=O)CC1COCCN1C(=O)CCc1nnc(-c2ccsc2)o1 (stereo not given)	0.09	-1.3
O=C(CN1CCSCC1)N/N=C/c1ccc(F)cc1	0.85	-1.4
CCCn1c(N)c(C(=O)CSc2n[nH]c(-c3ccc(C)cc3)n2)c(=O)[nH]c1=O	0.67	-0.87
CCOC(=O)N1CCN(S(=O)(=O)c2ccc(C(=O)N(CCCN(C)C)c3nc4ccc(OC)cc4s3)cc2)CC1	1.3	0.66
CC1(OC(=O)C2CCCC2)C(=O)C=C2C=C3CCCCN3C=C2C1=O (stereo not given)	1.5	1.9
CCOC(=O)CSc1nnc(-c2ccc(S(=O)(=O)N3CCOCC3)cc2)n1-c1ccccc1	1.9	-2.4
CN(C)C(=O)CSc1nnc(Cc2ccc3c(c2)OCO3)o1	0.61	0.95
CCOC(=O)C(C)/C(C)=N/NC(=O)CCC(=O)Nc1cc(C)ccc1C (stereo not given)	0.13	-1.8
CN(CCO)c1cnccn1	0.18	0.89
CN(C)c1ccc(NC(=O)CN2C(=O)CC(c3ccccc3)=Nc3ccccc32)cc1	1.9	-0.11
O=C(Nc1ccc(F)cc1)c1ccccc1	0.03	0.67
COc1ccc(-c2cc(-c3ccc(OC)cc3)[nH]n2)cc1	1.2	0.01
CCOC(=O)c1cc2c(=O)n3ccccc3nc2n(CCCOC)c1=NC(=O)c1ccncc1	8.6*	-0.2*
O=C1NC(=O)/C(=C\c2ccc(Br)o2)S1	1.3	-0.95
O=C(NC1CCCC1)c1nc2c(nnn2Cc2cccc(Cl)c2)c(=O)[nH]1	0.34	1.6
COc1ccc(NS(=O)(=O)c2cccc(C(=O)N/N=C(\C)c3ccc(-n4ccnc4)cc3)c2)cc1	0.7	0
O=C(CCC1CCCCC1)Nc1ccccc1O	4.5	0.02
Cc1ccc2[nH]c3c(c2c1)CC/C(=C/c1ccccc1)C3=O	0.02	-0.01
COC(=O)CC1C(=O)NCCN1C(=O)c1cc([N+](=O)[O-])ccc1Cl (stereo not given)	0.89	0.21
O=C(CSc1nnc(-c2ccccn2)o1)Nc1cccc(Cl)c1	1.1	1
O=C(NCCc1ccccc1)/C(=C\c1ccc([N+](=O)[O-])cc1)NC(=O)c1ccco1	0.24	-0.73
CC(=O)N1CCc2c(sc(NC(=O)CCS(=O)(=O)c3ccc(C)cc3)c2C(N)=O)C1	0.46	-0.76
Going on with the list.
SMILES	KCNQ2 enhance	KCNQ2 enhance baseline
Cc1cc(C)c(NC(=S)NCC2CCN(C(C)c3ccccc3)C2)c(C)c1 (stereo not given)	1.4	-3.5
Cn1cc(CN2CCN(Cc3ccc4c(c3)OCO4)CC2)c(-c2ccccc2F)n1	2.7	0.08
COc1cc(C)ccc1OCc1cc(C(=O)N2C[C@H]3CC[C@H]2C3)no1	0.32	-0.28
COc1ccccc1N1CCN(C(=O)CCC(=O)N2CCN(c3ccc(F)cc3)CC2)CC1	1.3	-0.99
CCn1c(SCC(=O)NNC(=O)c2ccc(OC)cc2)nnc1C1CC1	0.11	0
COC(=O)c1sc(NC(=S)NC(=O)c2cccc(C)c2)nc1C	3.3	-0.76
CCn1ccnc1CNC(=O)c1cc(COc2ccc(F)cc2F)on1	0.05	0.08
CCOc1c(O)ccc(C2NC(=O)NC(C)=C2C(=O)OC)c1[N+](=O)[O-] (stereo not given)	0.09	-0.12
CCOc1ccccc1NC(=O)CN1CCN(C(=O)C2CCCO2)CC1 (stereo not given)	0.58	2.4
COc1cc(C)ccc1OCCOc1c(C)cccc1Cl	0.54	-0.11
Cc1nc(CN2CCCCC2)cc(=O)[nH]1	0.58	-0.31
COc1ccccc1CNC(=O)C(=O)NCC1OCCN1C(=O)c1cccs1 (stereo not given)	0.19	0.39
COc1cccc(OCC(O)CN2CCC(C)CC2)c1 (stereo not given)	1.2	-0.8
O=[N+]([O-])c1ccccc1Oc1ccc(Cl)c2cccnc12	0.23	-0.05
CCCCCCSc1cc(-c2nc3cc(C)ccn3c2NC2CCCCC2)ccc1OC	0.61	0.29
COc1ccc(N2CCN(C(CNC(=O)C(=O)NCCC3=CCCCC3)c3ccco3)CC2)cc1 (stereo not given)	0.85	-0.88
C=CCn1c(SCC(=O)N(CCC)C2CCS(=O)(=O)C2)nnc1-c1ccccc1OC (stereo not given)	0.91	-0.91
CN(C)C(=O)c1cn(CCC#N)nc1-c1ccc2ccccc2c1	1.3	-1.5
CN(C)c1cccc(Oc2nc3c(c(=O)n(C)c(=O)n3C)n2C)c1	0.75	1.6
COc1ccc(CC(=O)NC(C)C2COc3ccccc3O2)cc1OC (stereo not given)	1.5	-0.12
O=S(=O)(Nc1ncccn1)c1ccc(NC(=S)NCc2ccco2)cc1	1.1	-1
COC(=O)c1[nH]c2ccc(C)cc2c1NC(=O)CCN1CCN(Cc2ccc3c(c2)OCO3)CC1	3	-0.42
Cc1ccc(CNC(=O)CCc2cn(C)c3ccccc23)cc1	1.1	-0.66
COc1ccc(-c2cc(C(=O)O)[nH]n2)cc1OC	0.35	0.98
Cn1nc(-c2ccccc2F)c2cc(C(=O)Nc3ccc4c(c3)OCCO4)sc21	1.6	-1.6
(list continues)
SMILES	KCNQ2 enhance	KCNQ2 enhance baseline
Cc1ccc2nc(SCC(=O)Nc3cccc(S(=O)(=O)NC4=NCCCCC4)c3)[nH]c2c1	0.55	-0.12
CC1=C(C(=O)Nc2ccccc2C(=O)NC2CCC(C)CC2)SCCO1 (stereo not given)	0.08	-0.16
O=[N+]([O-])c1ccc(OCCCCN2CCCCC2)cc1	2.1	-0.79
CCN1CCN(c2cc(C)c3cc(NC(=O)c4cccc(OC)c4)ccc3n2)CC1	1.9	-0.73
CCc1oc2ccccc2c1C(=O)c1cc(Br)c(O)c(Br)c1	0.06	0.21
COc1ccc(S(=O)(=O)N2CCN(CC(=O)Nc3cc(OC)cc(OC)c3)CC2)cc1	0.05	0.3
O=C(NCc1cccs1)c1ccc(CS(=O)Cc2ccccc2Cl)o1 (stereo not given)	0.87	0.41
O=C(c1cccc(C(F)(F)F)c1)C1CCCN(Cc2cccn2-c2ccccn2)C1 (stereo not given)	1.7	-1.5
Cc1cc(C)n2nc(C(=O)OCCOc3cccc(Br)c3)nc2n1	0.13	2
COC(=O)c1c(-c2ccccc2)c[nH]c1C	2.3	0.03
CCCn1c(CCC(=O)O)ccc1-c1ccccc1	1.4	0.97
COc1cccc(/C=N/Nc2ncc(C)c(=O)[nH]2)c1OC	2	-1.1
O=C(c1cccn(Cc2cccc(Cl)c2)c1=O)N1CCOCC1	0.36	0.6
CN(C)C(=S)NC1CCS(=O)(=O)C1 (stereo not given)	2.4	-1

Complete entries, quoted from the list. Order of screens: KCNQ2 enhance	KCNQ2 enhance baseline
Entry for O=C(NCc1cccs1)c1ccc(CS(=O)Cc2ccccc2Cl)o1 (stereo not given) = 0.87	0.41
Entry for CN(C)C(=S)NC1CCS(=O)(=O)C1 (stereo not given) = 2.4	-1
Entry for CC1=C(C(=O)Nc2ccccc2C(=O)NC2CCC(C)CC2)SCCO1 (stereo not given) = 0.08	-0.16
Entry for Cc1ccc2nc(SCC(=O)Nc3cccc(S(=O)(=O)NC4=NCCCCC4)c3)[nH]c2c1 = 0.55	-0.12
Entry for COc1cccc(/C=N/Nc2ncc(C)c(=O)[nH]2)c1OC = 2	-1.1

An excerpt; the hit share may differ from the screen's.
